LANA-nucl inh: inhibitors of KSHV LANA binding to nucleosomes; FITC-LANA1-23 / chicken nucleosome fluorescence polarization; active compounds read low; 0.3% of 51,000 active; z-score (concentration not given with the values);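 active means both repeat wells score below -2 in polarization z-score versus plate sample wells, excluding overly bright wells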;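 further: 100 nL library stock added to about 30 µL; numbers are from one replicate; some results filed as inactive read as strong as hits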
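Assay system: FITC-LANA peptide and chicken nucleosomes; input: 240 nM purified chicken nucleosomes (480 nM peptide binding sites), final; also added: 50 nM FITC-LANA1-23 probe; medium: TEN-BT buffer, pH 7.5; doses: pin-transferred compound, 100 nL; times: 10–45 min, room temperature; technique: fluorescence polarization; replication: duplicates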
BasE inh: BasE siderophore biosynthesis inhibition; purified BasE, fluorescence polarization binding displacement; inhibition, % (no concentration beside the values); 0.1% of 84,000 active; AID 485350;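 active means both replicates above 25% with normal brightness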;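 further: 0% = negative plate control signal and 100% = positive plate control signal; stock transfer was 100 nL into about 30 µL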
Starred values were filed as active, the others as inactive; / = not tested or not shown. Only part of the results is shown; rates above refer to the full screens.

| SMILES | LANA-nucl inh | BasE inh |
| --- | --- | --- |
| CNC(=O)c1ccccc1-[s+]1c2ccccc2c(=O)n1C (stereo not given) | / | -1.4 |
| Nc1cc(N)nc(SCCC(=O)O)n1 | / | 0.1 |
| Cc1cc(OC(C)C(=O)Nn2cnnc2)ccc1Cl (stereo not given) | 0.462 | 3.0 |
| O=S(=O)(Nc1cccc(F)c1)c1ccccc1 | -0.155 | -1.3 |
| O=C(NC1CCCCCC1)c1cc2c(s1)CS(=O)(=O)C2 | -0.175 | 0.5 |
| Cc1ccsc1C(=O)N1CC(C)OC(C)C1 (stereo not given) | / | -0.5 |
| CC1=Nc2ccc(Br)cc2C(c2ccccc2)N1CC(=O)O (stereo not given) | 0.782 | 1.6 |
| CNC(=O)c1cc2cc(OC)ccc2oc1=N | -0.0435 | 0.5 |
| COc1ccc(-n2nc(C(F)(F)F)cc2-c2cccs2)cc1 | / | 3.3 |
| c1ccc2cc(OCCN3CCCCC3)ccc2c1 | 0.292 | -3.6 |
| Nc1[nH]ncc1-c1ccc(-n2cccc2)cc1 | 0.0105 | / |
| CC(=O)N1CCC(C(=O)Nc2cc(C)cc(C)c2)CC1 | -0.699 | / |
| Cn1c2ccccc2c2cnn(CC(=O)NCc3ccccc3)c(=O)c21 | -0.103 | 2.7 |
| O=C(/C=C/c1ccccc1)/C=C/c1ccccc1 | / | 2.4 |
| CN(CC(=O)Nc1ccc(N2CCOCC2)cc1)CC(=O)Nc1ccccc1C(=O)c1ccccc1 | / | -1.4 |
| CCOc1cc(Cl)c(Cl)c2cc(C(=O)NC)c(=O)oc12 | -0.126 | -0.9 |
| CNC(=O)c1sc(CN2C(=O)c3ccccc3S2(=O)=O)nc1C | / | 1.2 |
| O=C(O)CN1C(=O)CC(Cc2ccc(Cl)cc2)C1=O (stereo not given) | / | -0.1 |
| N#Cc1oc2ccccc2c1NC(=O)COC(=O)CSc1ccc2ccccc2c1 | / | -1.9 |
| COCN(C#N)c1nc(N(C)C)nc(N(C)C)n1 | / | -0.3 |
| CC(=O)NC(=O)/C(C#N)=C/Nc1ccc(F)c(Cl)c1 | 0.653 | -0.7 |
| CC1=C(CCN2CCN(C)CC2)C(C)(C)CCC1 | -0.445 | -2.8 |
| O=C1CCC2(CC1)OCCO2 | 2.34 | -2.7 |
| COC(=O)/C(=C\c1c[nH]c2ccccc12)NC(C)=O | -0.923 | -0.3 |
| CCOC(=O)c1nn(-c2ccccc2)c(=N)c(C#N)c1C | / | -25.9 |
| Cc1onc(-c2ccccc2)c1C(=O)Nc1ccc(S(=O)(=O)Nc2ncccn2)cc1 | -0.0135 | 0.6 |
| CCOC(=O)N1CCN(C(=O)CCCN2C(=O)/C(=C\c3cccs3)SC2=S)CC1 | / | -1.3 |
| N#CN=C(c1ccccc1)c1ccccc1 | / | 2.7 |
| CN1/C(=C\C(=O)COC(=O)C2CC3CCCC(C2)C3=O)C(C)(C)c2ccccc21 (stereo not given) | / | -3.6 |
| CCCc1c(C)c2ccccc2[nH]c1=O | 0.677 | -1.9 |
| O=C(CSc1nnc(-c2ccc(OC(F)F)cc2)o1)NCC12CC3CC(CC(C3)C1)C2 | / | 0.9 |
| CC1(C)CC(=O)C=C(N2CCN(Cc3ccccc3)CC2)C1 | / | -0.6 |
| Cn1c(CNC(=O)c2ccccc2)n[nH]c1=S | 0.641 | 0.0 |
| CCCN(CCO)CCCc1ccccc1 | 0.003 | -1.9 |
| NC(=O)c1ccccc1NC(=O)CSc1nc(N)cc(=O)[nH]1 | 0.053 | -0.6 |
| CCS(=O)(=O)c1cccc(C(=O)Nc2nccs2)c1 | 0.57 | 0.7 |
| CC(C)Cc1oc(C(=O)O)cc1CN | 0.769 | 1.4 |
| COC(=O)C(NC=O)C(O)(c1ccc(OC)cc1)C(F)(F)F (stereo not given) | / | -0.7 |
| COc1ccc(CCNC(=O)CSc2nc(O)c(C(C)C)c(=O)[nH]2)cc1OC | 0.533 | -2.4 |
| O=C1NN=C(c2ccccc2)C1CCO (stereo not given) | -0.74 | 3.9 |
| O=C(Nc1ccccc1)N1CCN(Cc2ccc3c(c2)OCO3)CC1 | 2.12 | 1.3 |
| CCCC(=O)Nc1ccc(Cl)c(Cl)c1 | 1.45 | -7.9 |
| Cc1ccc(CN(C)Cn2nc(-c3c[nH]c4ccccc34)n(CC3CCCO3)c2=S)o1 (stereo not given) | / | 0.1 |
| CCCCN1C(=O)SC(Nc2cccc(C)c2)C1=O (stereo not given) | 0.74 | -0.2 |
| C=CCn1c(SC(C)C(N)=O)nc2ccc(Cl)cc2c1=O (stereo not given) | / | -1.7 |
| COc1ccc(-c2oc(/N=C/N3CCCCC3)c(C#N)c2-c2ccc(OC)cc2)cc1 | 0.364 | -3.5 |
| CC1CN(S(=O)(=O)c2ccc(NC(=O)CN3C(=O)COc4ccccc43)cc2)CC(C)O1 (stereo not given) | / | 2.9 |
| COc1ccc(C2CC(c3c(O)cc(C)oc3=O)=NCCS2)c(OC)c1 (stereo not given) | -0.21 | -1.9 |
| CC(C)C(=O)N(c1nnc(-c2ccncc2)s1)C(C)C | 0.229 | -0.9 |
| COC(=O)/C=C/C(=O)Nc1ccccc1 | 0.131 | 1.5 |
| COc1cccc(-n2c(=S)sc3c(=O)n4[nH]c(=O)c5ccccc5c4nc32)c1 | 0.0815 | 8.3 |
| S=C(NCCc1ccccc1)N1CCN(c2ncccn2)CC1 | 0.369 | 1.3 |
| CC1=C(C(=O)Nn2cnc3cccc(F)c3c2=N)Sc2ccccc2N1 | / | 35.6* |
| Cc1cc(NC(=O)c2cccc(F)c2)ccc1NC(=O)c1ccco1 | -1.13 | -1.3 |
| Brc1ccc(-c2nnc(CC34CC5CC(CC(C5)C3)C4)o2)cc1 | 1.35 | 0.6 |
| CCc1ccc2nc(NC(=O)Cc3csc(NC(=O)c4ccco4)n3)sc2c1 | / | -1.6 |
| CCn1cnc2cc(NC(=O)COc3ccccc3)ccc21 | -1.6 | -3.5 |
| O=C(O)c1cccc(S(=O)(=O)Nc2ccccn2)c1 | 0.024 | 1.1 |
| COCCNC(=O)C1CCN(C(=O)C(C)(C)C)CC1 | / | 3.1 |
| CCn1c(SC(C)C(=O)c2ccc(Br)cc2)nnc1-c1cccs1 (stereo not given) | / | 2.3 |

More structures
| SMILES | LANA-nucl inh | BasE inh |
| --- | --- | --- |
| Cn1c(NC(=O)Cc2ccccc2)cc(=O)n(C)c1=O | -1.04 | 0.9 |
| COc1ccc(CN2C(=O)C(C)N(c3ccc(C)cc3)C2=O)cc1F (stereo not given) | / | -2.1 |
| CCC(Sc1ccc(C(=O)O)cc1)C(=O)O (stereo not given) | -1.06 | -1.6 |
| CC(C)(C)C(=O)c1cnc(Nc2ccccc2)s1 | -0.978 | / |
| COC(=O)c1c(O)c(C=Nc2ccc(Br)cc2)c(=O)n2c1CCC2 | / | -1.5 |
| N#C/C(=C\c1ccc(Cl)cc1Cl)c1c[nH]c2ccccc12 | / | -5.7 |
| CC(=O)Nc1ccc(SC(C)C(=O)NC(N)=O)cc1 (stereo not given) | / | 0.9 |
| CC(C)(C)C(=O)C[n+]1ccc(C(N)=O)cc1 | / | 0.1 |
| COc1ccc(NC(=O)OCC(F)(F)F)cc1 | 1.75 | -1.3 |
| NC(=O)COC(=O)c1cccc(S(=O)(=O)N2CCc3ccccc3C2)c1 | / | 1.2 |
| CC(C)n1nccc1C(=O)O | 0.71 | 0.4 |
| CC(C(=O)OCn1nnc2ccccc2c1=O)N1C(=O)c2ccccc2C1=O (stereo not given) | / | 2.0 |
| CN(CC(=O)O)S(=O)(=O)c1ccc(Oc2ccccc2)cc1 | -0.109 | 1.7 |
| CN(C)c1ccc(/C=C2/N=C(c3ccccc3)OC2=O)cc1 | 2.43 | / |
| O=C(Nc1ccccc1)N1CCN(S(=O)(=O)c2ccccc2)CC1 | -1.19 | 0.6 |

(more compounds)
Fields – LANA-nucl inh	BasE inh
Cc1cc(SCC(=O)NC(=O)NCc2ccco2)nc2c(C)cccc12
 : /	-2.5
N#CC(C(=O)N1CCCC1)C(=S)Nc1cccc(C(F)(F)F)c1 (stereo not given)
 : /	-2.0
CS(=O)(=O)Nc1ccc(C(=O)Nc2ccccc2)cc1
 : /	0.9
COc1cccc(NC(=O)CCCOc2cc(=O)n(C)c3ccccc23)c1
 : -0.316	-1.4
N#Cc1ccccc1NC(=O)CNC12CC3CC(CC(C3)C1)C2
 : /	0.7
Cc1cc(C)cc(-n2c(CCC(=O)O)ccc2-c2cccs2)c1
 : 0.179	-0.6
Cc1cc2c(s1)CCc1cc(C(=O)O)sc1-2
 : -0.962	1.4
O=C1NC2(CCCCC2)N(C(=O)COc2ccc(Cl)cc2)C2=C1CCCC2
 : /	-1.1
COc1ccccc1-c1nnc(C2CCN(S(=O)(=O)c3ccc(Cl)s3)CC2)o1
 : -0.747	-3.8
Nc1nonc1-c1ccccc1
 : /	1.5
N/C(=N\N=C1CCCCCC1)SCn1nnc2ccccc2c1=O
 : /	1.6
CC1(C)CSC(=NCc2ccccc2)N1C(=O)Cn1[nH]c(=O)c2ccccc2c1=O
 : /	1.5
O=C(OCn1nnc2ccccc2c1=O)C1COc2ccccc2O1 (stereo not given)
 : /	1.5
CCCc1c(-c2ccccc2)nc2sc3c(c2c1N)CCCCC3
 : /	-4.4
CSc1ccccc1NS(=O)(=O)c1cccs1
 : 0.005	3.5
Brc1ccc2c(c1)c1ccccc1n2CN1CCCCC1
 : 0.479	-1.4
CSc1nc2c(c(=O)[nH]1)C(c1cc(C)ccc1C)CC(=O)N2 (stereo not given)
 : -0.104	1.1
N#CC(C#N)=Cc1ccc(-c2ccc3c(c2)COC3=O)o1
 : -0.288	-2.0
O=C(NC1CCCCCC1)C1=NN(C2CCS(=O)(=O)C2)C(=O)CC1 (stereo not given)
 : /	1.2
Cc1cn2c(=O)c(C(=O)N3CCN(C(c4ccccc4)c4ccccc4)CC3)cnc2s1
 : -0.383	1.9
O=c1c(CNc2ccccc2)cc2cccc3c2n1CCC3
 : 1.63	-0.5
O=C1CS/C(=N/N=C/c2ccccc2O)N1
 : /	-1.4
O=C(CNCCc1ccc(F)cc1)N1N=C(c2ccc(Cl)cc2)CC1c1ccco1 (stereo not given)
 : /	-2.4
Cc1ccccc1-n1c(=S)[nH]c2nc3c(cc2c1=O)CCCC3
 : /	-0.1
CCN(CC)Cc1nc2ccccc2n1C
 : -0.574	1.6
Cc1cccc(-c2nc(-c3ccc(N4CCN(c5ccc(C(F)(F)F)cn5)CC4)nc3)no2)c1
 : -1.43	0.4
COC(=O)c1ccc(NC(=O)Nc2ccc(C)cc2)cc1
 : 0.51	-0.3
O=S(=O)(Nc1ccc2c(c1)OCO2)c1ccc2ccccc2c1
 : /	0.3
Cc1ccc2c(=O)c(C(=O)c3cccc(Cl)c3)cn(CC(=O)NCC3CCCO3)c2n1 (stereo not given)
 : /	-2.1
Cc1c(NC(=O)CC(O)(C(F)(F)F)C(F)(F)F)c(=O)n(-c2ccccc2)n1C
 : -1.61	3.3
CCOc1nc(C)c(CC(=O)O)c(OCC)n1
 : 0.274	0.6
NNc1nc(-c2ccccc2)c2cc(Br)ccc2n1
 : /	0.0
O=C(Cc1ccccc1)NNC(=S)Nc1ccccc1
 : -0.894	5.1
CCOc1ccc(C/C(N)=N\n2cnnc2)cc1
 : 0.32	1.7
Cc1cc(C(=O)N(Cc2ccco2)Cc2cccs2)no1
 : /	0.2
Cc1ccccc1C(=O)Nc1cccc(NC(=O)c2ccc(-c3ccc(Cl)cc3Cl)o2)c1
 : /	-1.6
CCNC(=O)c1sc2ccccc2c1Cl
 : -1.12	-4.0
O=c1ccn(-c2ccc(-c3ccn[nH]3)cc2)cc1
 : 0.339	/
O=C(O)[C@H](Cc1ccccc1)N1Cc2ccccc2C1=O
 : -0.355	2.5
Cc1cccc(-n2nc(C)c3c2NC2=C(C(=O)CCC2)C3c2ccccn2)c1 (stereo not given)
 : /	-1.0

Record cards (already shown). Order of values: LANA-nucl inh, BasE inh
Listed for Cc1ccc2c(=O)c(C(=O)c3cccc(Cl)c3)cn(CC(=O)NCC3CCCO3)c2n1 (stereo not given) : /, -2.1
Listed for Cc1cccc(-c2nc(-c3ccc(N4CCN(c5ccc(C(F)(F)F)cn5)CC4)nc3)no2)c1 : -1.43, 0.4

Later entries
Fields – LANA-nucl inh	BasE inh
COc1ccccc1S(=O)(=O)N1CCNC(=O)C1
 : /	-1.2
CSc1ccc(C2C(C(=O)N3CCCCC3)=C(C)NC3=C2C(=O)CCC3)cc1 (stereo not given)
 : -1.29	1.3
NC1=NC(=O)C(C(=O)NC2(C(F)(F)F)Oc3cc(Cl)c(Cl)cc3O2)S1 (stereo not given)
 : /	-0.3
CCOC(=O)C1=C(C)C/C(=N\NC(=O)c2ccccc2O)CC1
 : /	2.0
O=C(CN1CCc2sccc2C1c1cccs1)Nc1cc2[nH]c(=O)[nH]c2cc1Br (stereo not given)
 : /	-0.2
O=C(c1ccc(N2CCc3ccccc32)s1)N1CCCCCC1
 : 0.362	2.6
CS/C(=C(/C#N)S(=O)(=O)C(C)C)N1CCCC1
 : /	-3.4
CC1CCN(C(=O)c2cc3n(n2)C(C(F)(F)F)CC(c2ccco2)N3)CC1 (stereo not given)
 : -0.14	0.1
CC12CC(c3ccccc3O1)C(/C(N)=N\NC(=O)c1ccc(F)cc1)C(=O)N2 (stereo not given)
 : 0.702	0.6
CC(=O)N1Cc2ccccc2C(C)CC12CCCCC2 (stereo not given)
 : /	-3.0

Of the compounds above, 3 have a tert-butyl group.
Fields – LANA-nucl inh	BasE inh
COCCNC(=O)C1CCN(C(=O)C(C)(C)C)CC1
 : /	3.1
CC(C)(C)C(=O)c1cnc(Nc2ccccc2)s1
 : -0.978	/
CC(C)(C)C(=O)C[n+]1ccc(C(N)=O)cc1
 : /	0.1

Bioassay records deposited in PubChem BioAssay by ICCB-Longwood Screening Facility, Harvard Medical School.
